Source: PubChem
TRPML1 ag – human mucolipin-1 channel agonism; 410,000 tested, 0.12% active; activation, % (concentration not given with the values); Q9GZU1; TRPML1-expressing cells, Ca2+ dye fluorescence, FDSS; host cell line not named in the record; reference of the full effect not given here; in the data active = activation above about 50%; inconclusive = about 30% to 50%; inactive = below about 30%; also: 0% is about no effect; the text of the record puts the active cut at 80%
Target sequence (Q9GZU1 whole entry, looked up): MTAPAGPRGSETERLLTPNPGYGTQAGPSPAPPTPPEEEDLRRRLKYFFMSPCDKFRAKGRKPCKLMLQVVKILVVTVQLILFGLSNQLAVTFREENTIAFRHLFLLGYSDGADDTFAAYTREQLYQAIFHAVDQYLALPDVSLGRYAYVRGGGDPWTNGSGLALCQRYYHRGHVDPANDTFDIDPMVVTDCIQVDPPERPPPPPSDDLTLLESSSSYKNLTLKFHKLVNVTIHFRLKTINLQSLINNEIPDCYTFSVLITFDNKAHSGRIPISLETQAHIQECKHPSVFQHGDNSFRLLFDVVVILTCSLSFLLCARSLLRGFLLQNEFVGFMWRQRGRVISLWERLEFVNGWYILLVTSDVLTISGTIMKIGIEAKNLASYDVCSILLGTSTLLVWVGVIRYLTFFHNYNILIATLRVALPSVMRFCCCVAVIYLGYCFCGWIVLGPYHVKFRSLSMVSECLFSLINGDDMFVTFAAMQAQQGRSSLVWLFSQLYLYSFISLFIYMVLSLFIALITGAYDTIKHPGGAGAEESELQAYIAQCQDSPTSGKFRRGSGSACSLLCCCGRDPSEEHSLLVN
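Tetracycline-induced TRPML1-DL cells are seeded and incubated overnight before loading with a no-wash Ca2+ dye and quencher. Agonist activity is taken from the 110 s fluorescence read following compound pin-transfer on an FDSS, before EC80 54-4 challenge.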
PINK1 modulator – modulators of PINK1 expression; PINK1 immunofluorescence, high-content cytometry, 24 h; Potency, µM (titrated, usually from 76.6 µM), inactives show top-dose activation (PINK1 increase), most hits filed as activators; 410,000 tested, 0.2% active; AID 624263; active = well fitted activation curve with a large enough effect; inconclusive = small, poorly fitted or top-dose-only effect; inactive = flat fitted curve, though single readings scatter; cell line not stated here;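 also: potency is read from the fitted curve at half-maximal effect; % of control where 0% means no effect; nearly all actives have a fitted effect of over 65% in size; a mitochondrial uncoupler was the plate control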
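A stable cell line was treated with compounds at 5 concentrations for 24 hours, with CCCP as control. PINK1 levels and mitochondrial localization were measured by immunofluorescence with mitochondrial, cell and nuclear markers after fixation, read by laser-scanning cytometry.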
TRPML1 inh – inhibitors of human TRPML1 channel | TRPML1-inducible cells, Ca2+ dye fluorescence, FDSS; active compounds read low; inhibition of EC80 agonist-evoked calcium signal | activity change, negative = inhibition, % (test concentration not listed) | 390,000 tested, 0.02% active; in the data active means activity change below about -50%; inconclusive means about -30% to -50%; inactive means above about -30%;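 also: stimulus is agonist 54-4 at its EC80 concentration; % is scaled to controls: 0 for no effect and ±100 for the full control effect; compound concentration not given in the record; the text of the record puts the active cut at -80%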
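Tet-induced TRPML1-DL cells loaded with Ca8 no-wash calcium dye were read kinetically on FDSS. Compound addition was followed by EC80 agonist 54-4 (4 uM final); inhibition was read over 110 s.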
CtBP-E1A inh – blocks the CtBP interaction with E1A | AlphaScreen GST-E1A/His-CtBP binding, 1536-well; active compounds read low; control for the full effect not named in the record | activity change, % (test concentration not listed) | 340,000 tested, 0.49% active; in the data active means activity change below about -65%; inconclusive means about -30% to -65%; inactive means above about -30%; also: % is scaled to controls: 0 for no effect and ±100 for the full control effect
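AlphaScreen with 125 nM GST-E1A and 125 nM His-CtBP (5X stocks) in Tris pH 8.0, 300 mM NaCl, BSA, Tween 20, TCEP. Compounds preincubated 2 h at 37 deg C, then glutathione donor/nickel acceptor beads added for 1 h at 37 deg C in dark.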
Six1-Eya2 blk – inhibitors of human Six1/Eya2 interaction; Q15475+O00167; AlphaScreen GST-Six1/His-Eya2 binding, biochemical; active compounds read low; control for the full effect not named in the record; activity change, % (test concentration not listed); 360,000 tested, 0.56% active; AID 651725; in the data active = activity change below about -65%; inconclusive = about -30% to -65%; inactive = above about -30%; also: % is scaled to controls: 0 for no effect and ±100 for the full control effect
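AlphaScreen with GST-Six1 and His-Eya2 (5X mix: 250 nM and 500 nM), glutathione donor and nickel acceptor beads; buffer 50 mM Tris pH 8.0, 300 mM NaCl, 1 mM TCEP; 1 h at 37 C in the dark.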
D2 agonist – human D2 receptor agonism in beta-arrestin assay; P14416; DiscoveRx PathHunter D2 beta-arrestin, luminescence, 90 min; 100% = 57 uM dopamine signal; activation, % (no concentration beside the values); 360,000 tested, 0.084% active; AID 624465; in the data active = activation above about 40%; inconclusive = about 15% to 40%; inactive = below about 15%; also: compound concentration not given in the record; the text of the record calls up to 30% inactive
Target sequence (P14416 whole entry, looked up): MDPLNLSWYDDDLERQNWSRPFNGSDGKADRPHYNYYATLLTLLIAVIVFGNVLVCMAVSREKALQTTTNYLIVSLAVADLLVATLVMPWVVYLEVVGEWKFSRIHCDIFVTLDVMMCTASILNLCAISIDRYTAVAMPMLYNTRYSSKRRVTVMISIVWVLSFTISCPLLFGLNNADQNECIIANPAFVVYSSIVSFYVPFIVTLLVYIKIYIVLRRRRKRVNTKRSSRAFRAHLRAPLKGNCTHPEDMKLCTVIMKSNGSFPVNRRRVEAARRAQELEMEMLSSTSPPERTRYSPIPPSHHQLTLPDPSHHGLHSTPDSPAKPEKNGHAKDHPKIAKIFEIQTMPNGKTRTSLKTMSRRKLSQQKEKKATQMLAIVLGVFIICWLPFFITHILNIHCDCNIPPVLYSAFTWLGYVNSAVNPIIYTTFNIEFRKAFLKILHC
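DiscoveRx PathHunter D2 beta-arrestin cells (2,100/well) attached overnight, then compound-stimulated 90 min at 37 C in HBSS/10 mM HEPES/0.1% Tween-20 buffer; beta-galactosidase complementation read by luminescence after 1 h at ambient temperature. Dopamine 57 uM final (EC100) as control.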
The depositor's hits bear a star; ? = inconclusive; · = not tested or not shown; & = joins results of further samples; [ ] = remark or other dose.

SMILES	TRPML1 ag	PINK1 modulator	TRPML1 inh	CtBP-E1A inh	Six1-Eya2 blk	D2 agonist
Cc1onc(-c2ccccc2Cl)c1C(=O)N1CCCC1	-0.3	-0.1%	26	0	24	5.2
Cc1[nH]c(=O)[nH]c(=O)c1S(=O)(=O)N1CCCC(C(=O)N2CCN(c3cccc(C(F)(F)F)c3)CC2)C1 (stereo not given)	1.7	-3.6%	-5	0	-2	0.1
CCCNc1ncnc2nc[nH]c12	-0.4	1.6%	-13	4	6	-5.0
O=C(CCc1nnc(C2(c3ccc(Cl)cc3)CCC2)o1)N1CCCC1	-0.6	1.7%	-1	-6	-5	-2.7
C=C(C)Cn1c(CCCNC(=O)CC)nc2ccccc21	-0.3	3.3%[38.3 µM]	18	7	3	0.0
COCCCNc1nc(-c2ccc(Cl)cc2)nc2ccccc12	-0.4	1.7%	12	7	-2	7.8
C#CCSc1nnc(-c2cccc3ccccc23)o1	0.0	-1.8%[38.3 µM]	-1	36	22	-0.6
O=C(CN(C(=O)CCC(=O)Nc1nccs1)c1ccc2c(c1)OCO2)NCc1ccccc1	-0.5	23%	15	3	-3	-5.8
Cc1cccc(-n2c(=O)c3c(c4cc(C)ccc4n3C)n(CC(=O)Nc3ccccc3Cl)c2=O)c1	1.6	0.2%	24	·	·	·
CCCN(CCC)C(=O)CSc1nc2ccccc2c(=O)n1CC1COc2ccccc2O1 (stereo not given)	-0.4	-4.3%[38.3 µM]	-8	5	5	0.3
CN(CC(=O)Nc1cccc(F)c1)C(=O)c1ccccc1Sc1ccccc1C#N	2.2	0.3%	26	-1	0	3.4
CC(C)c1ccc(NC(=O)c2n[nH]c(=O)c3ccccc23)cc1	-0.7	-0.6%	12	8	-11	0.6
CC1(c2ccc3ccccc3c2)NC(=O)N(CC(=O)O)C1=O (stereo not given)	0.0	0.4%	3	-2	-4	2.6
O=C(NCc1ccc(F)cc1)C1(S(=O)(=O)c2ccc(Cl)cc2)CC1	3.9	-0.7%	26	3	8	-3.5
CCOc1ccc(C(=O)N2CCc3ccccc32)cc1	·	1.5%	·	·	-6	1.5
O=C(c1cc(S(=O)(=O)N2CCOCC2)c(Cl)cc1Cl)N1CCCCC1	-0.2	0.1%[38.3 µM]	-16	-5	3	-2.0
COC(=O)[C@H](Cc1ccccc1)NC(=O)Nc1ccc(OC)cc1	-0.8	-2.1%	-8	-7	-3	0.6
O=S(=O)(Nc1ncccn1)c1ccc(NC(=S)Nc2ccccc2Cl)cc1	-0.4	0.2%	23	-9	4	-2.6
O=C1C(=O)N(Cc2cccnc2)C(c2ccccn2)/C1=C(/O)c1ccc(Br)cc1 (stereo not given)	-0.5	0.8%	11	-5	-1	4.6
O=C(CCCNS(=O)(=O)c1cccc2nsnc12)NCc1ccc(F)cc1	0.2	-3.8%	22	4	13	0.7

Arranged by number of heavy atoms (largest number first): part of the list above
SMILES	TRPML1 ag	PINK1 modulator	TRPML1 inh	CtBP-E1A inh	Six1-Eya2 blk	D2 agonist
O=C1C(=O)N(Cc2cccnc2)C(c2ccccn2)/C1=C(/O)c1ccc(Br)cc1 (stereo not given)	-0.5	0.8%	11	-5	-1	4.6
O=S(=O)(Nc1ncccn1)c1ccc(NC(=S)Nc2ccccc2Cl)cc1	-0.4	0.2%	23	-9	4	-2.6
O=C(c1cc(S(=O)(=O)N2CCOCC2)c(Cl)cc1Cl)N1CCCCC1	-0.2	0.1%[38.3 µM]	-16	-5	3	-2.0
O=C(NCc1ccc(F)cc1)C1(S(=O)(=O)c2ccc(Cl)cc2)CC1	3.9	-0.7%	26	3	8	-3.5
CCCNc1ncnc2nc[nH]c12	-0.4	1.6%	-13	4	6	-5.0

Gathered by group, the compounds so far containing fluorine (four)
SMILES	TRPML1 ag	PINK1 modulator	TRPML1 inh	CtBP-E1A inh	Six1-Eya2 blk	D2 agonist
Cc1[nH]c(=O)[nH]c(=O)c1S(=O)(=O)N1CCCC(C(=O)N2CCN(c3cccc(C(F)(F)F)c3)CC2)C1 (stereo not given)	1.7	-3.6%	-5	0	-2	0.1
CN(CC(=O)Nc1cccc(F)c1)C(=O)c1ccccc1Sc1ccccc1C#N	2.2	0.3%	26	-1	0	3.4
O=C(NCc1ccc(F)cc1)C1(S(=O)(=O)c2ccc(Cl)cc2)CC1	3.9	-0.7%	26	3	8	-3.5
O=C(CCCNS(=O)(=O)c1cccc2nsnc12)NCc1ccc(F)cc1	0.2	-3.8%	22	4	13	0.7

Continued.
SMILES	TRPML1 ag	PINK1 modulator	TRPML1 inh	CtBP-E1A inh	Six1-Eya2 blk	D2 agonist
CCOC(=O)c1c(-c2ccc(OC)cc2)csc1NC(=O)CSc1nnc(C)c(=O)[nH]1	-0.3	1.0%	7	-15	-13	-1.3
Nc1ccc(C(=O)OCC(=O)Nc2cccc(S(=O)(=O)NC3=NCCCCC3)c2)cc1[N+](=O)[O-]	0.8	-0.5%	27	-15	-30	-4.7
CCC(C(=O)NC1CCCC1)N(Cc1ccccc1Cl)C(=O)c1snc(C(N)=O)c1N (stereo not given)	2.0	1.3%	3	4	-1	-2.8
COc1ccc(CC2(c3ccccc3)NC(=O)NC2=O)cc1 (stereo not given)	0.4	6.2%	-2	0	7	1.1
CCn1c(SCC(=O)OCc2ccccc2)nc2c1c(=O)n(C)c(=O)n2C	3.5	3.2%[38.3 µM]	-19	-1	-1	-0.7
CCN(CC(=O)Nc1ccc(NC(C)=O)cc1)C(=O)C1(c2ccccc2)CC1	1.2	0.4%	-15	3	9	0.7
CC1CC(C)CN(C(=O)COC(=O)c2cc3ccccc3oc2=O)C1 (stereo not given)	0.0	-1.7%	0	-1	9	3.2
Cc1ccc(S(=O)(=O)N2CC(O)CC2C(=O)OCC(=O)Nc2ccc([N+](=O)[O-])cc2C(F)(F)F)cc1C (stereo not given)	3.3	0.5%	20	3	0	1.6
Cc1ccc(C)c(CN2C(=O)COc3ccccc32)c1	1.7	8.9%	7	19	11	-1.3
COc1ccc2c(c1)cc1c(=O)n(CC(=O)NC3CC3)nc(C)n12	-0.3	1.1%	-24	·	·	·
CC(C)n1cc(CN2CCC(n3nccc3NC(=O)Cc3ccccc3)CC2)cn1	-0.3	2.4%	-8	1	1	-4.9
COc1ccc(OC(C)C(=O)N2CCc3ccccc3C2)cc1 (stereo not given)	-0.4	4.1%	19	4	4	-1.2
CC(C)(C)C(=O)NC1CCN(S(=O)(=O)c2ccccc2F)CC1	0.8	1.8%	-1	5	10	-0.4
CCCSc1nc(-c2ccccc2)[nH]c1S(=O)(=O)c1ccc(C)cc1	-0.9	-1.1%	5	·	·	·
CC(C)(C)NC(=O)c1oc2ccccc2c1COc1ccccc1	6.5	20%	36	1	24	-1.5
COc1cccc(C(=O)/C(C#N)=N/Nc2cccc(-c3ccnc(C)n3)c2)c1	0.6	18%	3	·	3	5.0
C=CCN(CC=C)C(=O)COn1nnc2ccc(S(=O)(=O)N3CCOCC3)cc21	-0.1	-1.6%	-1	12	5	-6.5
CCOc1ccc(S(=O)(=O)NCCSCc2ccco2)cc1	0.0	·	0	-7	-19	-3.1
COCCNc1cc(N)c([N+](=O)[O-])cc1[N+](=O)[O-]	0.0	-1.0%	-12	5	-2	-3.8
COC(=O)C1=C(CS(=O)(=O)c2cc(Cl)ccc2OC)NC(=O)NC1c1ccc(O)c(OC)c1 (stereo not given)	0.1	-2.1%	4	0	4	3.2
NC(=O)CSc1oc(-c2ccco2)nc1S(=O)(=O)c1ccc(Cl)cc1	-0.6&-0.6	-1.3%&-0.2%	-13&7	17	-6	-2.4
COc1cccc(CN(C)CC2CCCN(CCc3ccc(Cl)cc3)C2)c1OC (stereo not given)	0.4	5.6%	9	-9	-13	1.7
COc1ccc(CCN2C(=NC(=O)CC(C)C)SC3CS(=O)(=O)CC32)cc1 (stereo not given)	-0.1	0.8%[38.3 µM]	1	3	6	-0.1
Cc1cc(Cl)ccc1C(=O)C1CCCN(C(=O)c2nonc2C)C1 (stereo not given)	2.3	1.7%	61	16	4	7.0
O=C(Nc1ccc(Cl)cc1)Nc1nc(-c2ccccc2)cs1	-0.4	1.7%	-14	0	4	-4.9
C[C@H]1CN([C@@H](C)CO)C(=O)CCCn2cc(nn2)CO[C@@H]1CN(C)C(=O)CCC(F)(F)F	0.4	2.5%	-5	3	1	-10
CCn1c(SCC(=O)OC2CCCCC2)nnc1-c1ccncc1	2.5	-3.0%	21	-3	12	0.0
Cc1ccc(Cn2cc(CCC(=O)NCc3ccc(OC(C)C)cc3)c3ccccc32)cc1	0.2	1.0%	24	·	·	·
CCOC(=O)c1nnn2c1nc(N1CCN(c3ccccc3)CC1)c1ccccc12	1.1	-0.2%	-2	7	0	2.5
O=C(CNS(=O)(=O)c1ccc2ccccc2c1)OCc1csc(-c2ccccc2)n1	1.2	2.6%	-11	-10	-1	-3.3
COc1ccccc1NC(=O)C(C)Sc1nnnn1C (stereo not given)	0.1	2.1%	-7	10	7	-1.1
COc1cc2c(cc1OC)C(c1cccc(Cl)c1)CC(=O)N2 (stereo not given)	0.4&-0.6	1.4%&0.6%	-5&6	-4	-13	-2.7
O=C(N/N=C1/CC(c2ccccc2)Oc2ccccc21)C1CC1 (stereo not given)	-1.1	5.1%	7	19	2	-1.5
O=S(=O)(NN1CCOCC1)c1ccc(Br)s1	0.5	-0.5%	1	-4	5	-4.3
CC(C)CCN(C(=O)Nc1ccc(Cl)cc1)C1CCN(C(C)C)CC1	0.5	0.2%	-10	-8	3	-6.6
Cc1ccccc1N/C(SCc1ccc(Cl)cc1)=C(/C#N)C(N)=O	2.5	5.6%	30	0	22	-7.3
CCN(CC)S(=O)(=O)c1cccc2cccnc12	-0.2	·	-17	-4	5	-1.3
CN1CCN(C2Cc3ccc(Cl)cc3Sc3ccc(F)cc32)CC1 (stereo not given)	3.0	11%	27	-6	-20	1.2
COc1ccc(CC(NC(C)=O)C(=O)NC2CCN(C(=O)c3ccc(OC)c(OC)c3)CC2)cc1OC (stereo not given)	0.7	-0.1%	22	·	2	-1.2
CCOC(=O)c1cn2nc(Oc3ccccc3)ccc2n1	0.7	1.8%	10	13	14	-2.0
COC(=O)c1cccc(NC(=O)CN2CCN(Cc3ccccc3)CC2)c1	-1.0	2.9%	-4	0	10	-5.3
CN1CCN(c2ccc(NC(=O)Cc3ccccc3)cc2)CC1	0.3	-2.4%	22	-3	4	-1.4
COc1ccc(-n2nc(C(=O)Nc3cc(OC)c(OC)c(OC)c3)c(=O)n(C)c2=O)cc1	0.7	0.8%	-18	·	·	·
CCOc1ccc(CN2CCN(Cc3ccc4cc(F)ccc4n3)CC2CCO)cc1 (stereo not given)	-0.4	0.6%	?	0	-11	-8.1
CC1CCN(c2ccc(-c3cccc(NS(=O)(=O)c4ccc(Cl)s4)c3)nn2)CC1	1.2	1.1%	-21	·	·	·
